Assay outcomes: PubChem, several laboratories
MT1-MMP reporter: inhibitors of MT1-MMP promoter transcription, cell-based, luciferase reporter, luminescence (AID 618) | 0.62% of 87,000 active | calls from a first round at 10 µM; hits with a dose series show EC50 in µM | MT1-MMP promoter luciferase reporter cells, luminescence;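 active means over half of the reporter light lost at 10 µM or EC50 under 50 µM; inactive means the rest and hits that failed the dose series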;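 further: actives suppress MT1-MMP promoter-driven transcription so potencies describe inhibitors; HT1080 fibrosarcoma cells; overnight exposure; toxic or luciferase-blocking compounds were not removed from the actives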
WNV protease inh: inhibitors of WNV NS2B-NS3 protease, primary screen, biochemical, fluorogenic substrate | Genome polyprotein (West Nile virus), P06935 | fluorogenic substrate Ex360/Em465; active compounds read low | z-score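 (tested at a level between 10 and 100 µM)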 | 0.18% of 65,000 active | AID 577, 2007;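 active means z-score at -3 or under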;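 further: score is relative to mean and spread of the compound wells of a plate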
Target sequence (P06935 1371-1501 limits assumed): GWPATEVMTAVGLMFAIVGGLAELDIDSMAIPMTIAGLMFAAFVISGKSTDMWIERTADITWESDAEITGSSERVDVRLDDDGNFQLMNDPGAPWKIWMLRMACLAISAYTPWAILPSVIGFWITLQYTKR
Target sequence (P06935 1502-1679 limits assumed): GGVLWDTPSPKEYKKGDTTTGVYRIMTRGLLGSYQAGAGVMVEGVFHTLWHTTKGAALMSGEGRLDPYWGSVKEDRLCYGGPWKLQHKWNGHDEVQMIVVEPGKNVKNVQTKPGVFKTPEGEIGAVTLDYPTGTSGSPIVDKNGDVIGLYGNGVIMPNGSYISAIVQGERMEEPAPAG
Hsc70: Hsc70 inhibitors, probe displacement, primary screen, biochemical, fluorescence polarization (AID 568) | displacement, % at 20 µM; hits with a dose series show IC50 in µM | Hsc70 fluorescence polarization, probe displacement; higher % means a stronger effect; strong numbers were not always called active | Heat shock cognate 71 kDa protein (Homo sapiens) | 83,000 tested, under 10 active;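 active means displacement above 50% without optical interference and an IC50 on retest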;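 further: ATPase domain with a fluorescein-tagged ATP probe; 0% = vehicle and 100% = excess ADP; read after one hour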
* hit, by the source's call; i = inactive; . = no result given. This is a random part of the collection, and some 0.77% of all compounds hit somewhere here.

SMILES	MT1-MMP reporter	WNV protease inh	Hsc70
O=C(CCCN1CC=C(n2c(=O)[nH]c3ccccc32)CC1)c1ccc(F)cc1	i	0.47	-0.9%
Cc1ccc(SCc2cc(=O)[nH]c(N3CCCCC3)n2)cc1	i	-1.2	-0.2%
CC(=O)c1ccc(NC(=O)Nc2ncn(Cc3cccc(C)c3)n2)cc1	i	0.96	-0.6%
N=c1c[n+](-c2ccc(Cl)cc2)[n-]o1	i	-0.92	-5.0%
CCCn1cnc2c(c1=O)c1nc3ccccc3nc1n2CCC1=CCCCC1	i	0.33	-0.9%
O=C(NC(Cc1c[nH]c2ccccc12)C(=O)O)c1ccccc1 (stereo unspecified)	i	-0.37	-2.8%
CCOC(=O)c1cc(NC(=O)OC)c(C)nc1C	i	-0.34	4.1%
O=C(Nc1ncccn1)C1CCCN1S(=O)(=O)c1ccc(Cl)c(Cl)c1 (stereo unspecified)	i	-1.3	3.2%
COc1cc2sc(C)nc2c2sccc12	i	-0.12	5.2%
CC(C)(C)OC(=O)N[C@@H](Cc1ccccc1)C(=O)N1CCC(C(=O)O)CC1	i	.	-2.6%
O=C(Nc1ccc2nc(-c3ccco3)[nH]c2c1)c1cccs1	i	-0.25	0.0%
Cc1ccc(Oc2ccc(OCC(=O)OC3CCS(=O)(=O)C3)cc2)cc1 (stereo unspecified)	i	.	-3.5%
COc1ccc(N2C(=O)NC3CC2(C)Oc2ccc(Br)cc23)cc1OC (stereo unspecified)	i	-0.22	-0.6%
c1ccc(Oc2nc(NCc3ccco3)nc(NCc3ccco3)n2)cc1	i	-0.62	-13%
CCn1c(CNC(=O)c2ccco2)nnc1SCC(=O)Nc1cc(C(F)(F)F)ccc1Cl	i	0.65	3.9%
C=CCN1C(=O)C(Cc2ccc(OC)cc2)S/C1=N\N=C\c1cccs1 (stereo unspecified)	i	.	3.2%
Cc1ccccc1S(=O)(=O)Cc1ccc(C(=O)O)o1	i	.	5.3%
Cc1nc(NCc2ccc3c(c2)OCO3)c2nnn(Cc3ccccc3)c2n1	i	-0.4	-0.2%
COc1ccc(-n2c(COc3cccc4ccccc34)nnc2SCC(=O)NCc2ccco2)cc1	i	.	4.2%
O=C(CSc1nnnn1-c1ccccc1)Nc1ncc2c(n1)CC(c1ccco1)CC2=O (stereo unspecified)	i	-0.29	-1.8%
CCCOc1ccc(-c2nc(OCC)c3ccccc3n2)cc1	i	.	2.7%
O=C1COc2ccc(C(=O)COC(=O)CCc3ccc(S(=O)(=O)N4CCOCC4)cc3)cc2N1	i	-0.22	-2.9%
COCCn1c(-c2ccccc2)cnc1N	i	.	4.1%
O=C(NCCCn1ccnc1)C1CC2CCC1C2 (stereo unspecified)	i	.	1.6%
CC1CCN(CCc2nc3cc(NC(=O)Nc4ccccc4)ccc3n2C)CC1	i	-0.89	-10%

Four entries already listed, sorted by SMILES length, low to high.
SMILES	MT1-MMP reporter	WNV protease inh	Hsc70
O=C(NCCCn1ccnc1)C1CC2CCC1C2 (stereo unspecified)	i	.	1.6%
Cc1nc(NCc2ccc3c(c2)OCO3)c2nnn(Cc3ccccc3)c2n1	i	-0.4	-0.2%
O=C(Nc1ncccn1)C1CCCN1S(=O)(=O)c1ccc(Cl)c(Cl)c1 (stereo unspecified)	i	-1.3	3.2%
O=C(CSc1nnnn1-c1ccccc1)Nc1ncc2c(n1)CC(c1ccco1)CC2=O (stereo unspecified)	i	-0.29	-1.8%

Additional records follow:
SMILES	MT1-MMP reporter	WNV protease inh	Hsc70
CCOc1ccccc1C1C(C#N)=C(N)Oc2cc(N)ccc21 (stereo unspecified)	i	.	4.4%
Cc1cccc2cc(CN(Cc3cccnc3)C(=O)c3ccncc3)c(=O)[nH]c12	i	-0.45	-2.8%
CC1(C)Cc2cccc(OCC(=O)N3CCN(S(=O)(=O)c4ccccc4F)CC3)c2O1	i	-0.4	0.0%
O=C(CN1CCN(c2nc(-c3ccc(Cl)cc3)cs2)CC1)NCc1ccco1	i	-1.1	-13%
O=C(NC12CCC(O)C(SC1)/C2=N/O)c1ccccc1 (stereo unspecified)	i	0.08	6.0%
Cc1cc(N2CCN(c3nc4ccccc4s3)CC2)n2ncnc2n1	i	0.46	2.2%
COc1ccc(NC(=O)C2CC(c3ccc(OC)c(OC)c3)=NO2)cc1OC (stereo unspecified)	i	0.05	-0.7%
COc1cc(C(=O)Nc2nccs2)c(Br)c(OC)c1OC	i	-0.41	-4.8%
COc1cc(OC)c(C2C(C#N)=C(N)OC3=C2C(=O)CC(C)C3)cc1OC (stereo unspecified)	i	0.03	-4.2%
Cc1c(NC(=O)c2ccc3c4c(cccc24)CC3)c(=O)n(-c2ccccc2)n1C	i	.	1.3%
Cc1cc2cc(CCNC(=O)CC(C)(C)C)c(=O)[nH]c2cc1C	i	-0.7	-2.0%
CCOC(=O)CCN(Cc1cccs1)S(=O)(=O)c1ccc(Cl)cc1	i	-0.53	-7.8%
COc1ccc2[nH]cc(C(=O)CN3CCCCC3)c2c1	i	-1.6	-5.8%
Cc1ccc2cc3cc(C(=O)N4CC(C)CC(C)C4)oc3nc2c1 (stereo unspecified)	i	-0.37	-2.1%
O=C(NCc1ccco1)C1OCCc2ccccc21 (stereo unspecified)	i	0.36	-6.9%
Cc1ccc(C)n1-n1c(C)nc2scc(-c3cccs3)c2c1=O	i	-1.1	-1.6%
C=CCC(NCc1ccccc1)c1ccc(C)o1 (stereo unspecified)	i	.	6.9%
O=C1CCC(=O)N1c1ccc(CSc2nnnn2C2CCCCC2)cc1	i	1.3	1.2%
Cc1noc(C)c1S(=O)(=O)N1CCCC(C(=O)NC2CCCCC2)C1 (stereo unspecified)	i	.	-3.3%
COCCNC(=O)Cn1cnc2ccc(S(=O)(=O)N3CCC(C)CC3)cc2c1=O	i	-0.3	-1.0%
Cc1ccc(S(=O)(=O)N(C)c2ccc(OCC(=O)O)cc2)cc1	i	.	-1.3%
CCN(CC)CCCN1C(=O)C(O)=C(C(=O)c2ccco2)C1c1cc(OC)ccc1OC (stereo unspecified)	i	0.31	-9.7%
CC(=O)c1c(C(C)=O)c(C)n(NC(=O)c2cccnc2)c1C	i	-0.11	-5.9%
Nc1nnc(SCC(=O)NC2CCCCC2)n1-c1ccccc1	i	2.1	-4.6%
Cc1ccc(-c2nc(COC(=O)c3c(C)noc3C)cs2)cc1	i	-0.34	-2.0%
SMILES	MT1-MMP reporter	WNV protease inh	Hsc70
CCCCCC1CC(CC(=O)Nc2nncs2)C(=O)O1 (stereo unspecified)	i	.	2.6%
Cc1ccc(S(=O)(=O)Nc2ccnc3ccccc23)cc1	i	.	3.2%
CCCCN(CC)CCNC(=O)Cn1cnc2sc(C)c(S(=O)(=O)N3CCOCC3)c2c1=O	i	.	3.9%
COc1ccc(C(=O)N(Cc2nc(-c3ccc(C)cc3)no2)C(C)C)cc1OC	i	-1.2	2.3%
Oc1ccccc1-c1nc(NCCN2CCOCC2)c2ccccc2n1	i	-1.4	-3.1%
Cn1c(SCCS(=O)(=O)c2ccc(Cl)cc2)nnc1-c1ccccc1	i	-0.31	-0.9%
CC1=C(C(=O)Nc2ccccc2)C(c2ccncc2)n2nnnc2N1 (stereo unspecified)	i	0.71	-1.9%
Cc1ccc(S(=O)(=O)c2c(N)n(NC(=O)c3ccccc3C)c3nc4ccccc4nc23)cc1	i	.	-0.3%
CCCCOc1ccc(-c2nnn(CC(=O)Nc3ncc(CC(=O)OCC)s3)n2)cc1	i	-0.23	2.2%
CCN(CCNC(=O)C1CCCN(S(=O)(=O)c2cnc[nH]2)C1)c1ccccc1 (stereo unspecified)	i	-0.7	-0.9%
O=C(O)c1c2c(nc3ccc(S(=O)(=O)N4CCC(C(=O)NC5CCCC5)CC4)cc13)CCCCC2	i	0.78	1.9%
O=c1oc2c(CN3CCOCC3)c(O)ccc2c2ccccc12	i	.	-6.1%
CCOC(=O)C1CCN(Cc2ccc(N(C)C)cc2)CC1	i	1.3	0.2%
Cc1ccc(OC(=O)c2ccc(C)c(C)c2)cn1	i	0.87	2.1%
O=C(O)CCCCCNc1nc2ncn(Cc3ccccc3)c2c(=O)[nH]1	i	0.39	3.9%
COc1ccc(CCN2CC3=C(C2=O)C(c2ccccc2)NC(=O)N3C)cc1OC (stereo unspecified)	i	0.21	2.2%
Cc1cc(C)nc(-n2nc(C)c3c(C(F)(F)F)cc(=O)[nH]c32)n1	i	.	7.4%
CCOC(=O)Oc1ccc2oc(=O)cc(C)c2c1	i	0.17	-0.7%
CC1CCCN(C(=O)c2cc(F)c(F)cc2Cl)C1 (stereo unspecified)	i	-0.36	-3.0%
C(/CCc1ccccc1)=N\n1cnnc1	i	1.3	-1.5%
O=C(Cc1ccc2c(c1)OCCO2)c1c(O)cc(O)cc1O	i	-0.59	-0.6%
CC1CCCCN1C(=O)Cn1c(=O)n(C2CCCCC2)c(=O)c2ccccc21 (stereo unspecified)	i	0.58	0.6%
CC1(C)CC(=O)C(C=NCCN2CCN(CCCCS(=O)(=O)O)CC2)=C(O)C1	i	-0.69	0.2%
O=C1NN(c2ccccc2)C(=O)/C1=C\c1cccc(OC(=O)c2cccs2)c1	i	.	-6.7%
CCOc1ccc(C(Nc2ccc(C)cc2)P2(=O)OCCC(C)O2)cc1 (stereo unspecified)	i	.	-1.1%
SMILES	MT1-MMP reporter	WNV protease inh	Hsc70
Cc1ccccc1-c1nn[nH]n1	i	.	-3.2%
Cc1cc(NC(=O)c2cc(C(C)C)on2)no1	i	-0.11	0.5%
COc1c(C)cc(Br)cc1C(=O)Nc1cccc(-c2nc3ncccc3o2)c1	i	-0.8	1.6%
Cc1cc(C)nc(N2CCC(C(=O)NCc3ccco3)CC2)n1	i	1	1.0%
Cc1oc2nc(SCC(=O)N3CCCCC3)nc(N)c2c1C	i	-0.07	-2.1%
COc1ccc(CCCC(=O)O)c(C)c1	i	-0.54	-4.1%
CC(=O)Cc1nsc(NC(=O)c2ccc(-c3cccc(C(F)(F)F)c3)o2)n1	i	-0.67	2.6%
Cc1cc(C)c2c(-n3cccc3)c(C(=O)O)sc2n1	i	-0.65	-4.0%
CCOc1ccc(S(=O)(=O)n2cnc3cc(C)c(C)cc32)cc1	i	-0.53	0.3%
COCCCn1c2nc3ccccc3nc2c2c(=O)n(CC3CCCO3)cnc21 (stereo unspecified)	i	-1.1	-4.5%
Cc1ccc2c(c1)NC(=O)C(CC(=O)NCCCN1CCCC1)O2 (stereo unspecified)	i	-0.13	-2.9%
CC(C)C(=O)Nc1sc2c(c1C#N)CCCCC2	i	.	0.4%
CC(CC(C)C(=O)N1CCOCCN(C(=O)C(C)CC(C)C(=O)O)CCOCC1)C(=O)O (stereo unspecified)	i	-0.48	-5.2%
C=CCn1c(-c2cc(OC)cc(OC)c2)n[nH]c1=S	i	-0.81	-4.2%
Cc1cc(C(F)(F)F)c2c(C)nn(CCc3nn[nH]n3)c2n1	i	1.1	-2.4%
CC(C)(C)c1cc(C(=O)NCc2ccco2)ccn1	i	0.86	3.4%
CCCOc1ccc(Br)cc1/C=N/O	i	.	2.6%
CS(=O)(=O)N(CCC(=O)O)Cc1ccccc1	i	0.48	-5.6%
O=C(CCn1nnc2ccccc21)Nc1nnc(-c2ccccc2F)s1	i	0.34	-0.5%
O=C1CC(N2CCC(O)(c3ccc(Cl)cc3)CC2)C(=O)N1Cc1ccc(N2CCCC2=O)cc1 (stereo unspecified)	i	0.21	2.0%
Cc1sc(-n2cccc2)c(C(=O)O)c1C	i	-0.69	-1.7%
CC(NC(=O)c1cccnc1)c1ccc2c(c1)OCO2 (stereo unspecified)	i	-0.94	-0.1%
CCCc1cc(C(N)=O)c(NC(=O)c2ccco2)s1	i	-0.84	-1.5%
O=C(COc1ccccc1)NCc1ccc2c(c1)OCO2	i	2.7	-1.2%
COc1ccc(S(=O)(=O)Cc2ccc(C(=O)NC3CC3)o2)cc1	i	0.18	0.5%
SMILES	MT1-MMP reporter	WNV protease inh	Hsc70
Cc1ccc2c(c1)C1CN(C)CCC1N2C(=O)Nc1ccc(Cl)cc1 (stereo unspecified)	i	-0.71	2.6%
Cc1ccc(NC(=O)C2(c3ccccc3)CCCC2)nc1	i	.	1.5%
COc1ccc(N=C2SC(C(N)=O)CC(=O)N2CCc2ccc(OC)c(OC)c2)cc1 (stereo unspecified)	i	.	-0.2%
NCC(O)COc1ccc2c(c1)OCO2 (stereo unspecified)	i	0.51	1.0%
CC(C)(C)c1ccc(C(=O)N2CCC(C(=O)NCc3ccncc3)CC2)cc1	i	1.5	-0.1%
CC(=O)OCP(C)(=O)COC(C)=O	i	-0.41	-2.0%

One compound at a time, from the list above.
Listed for Cc1ccc(NC(=O)C2(c3ccccc3)CCCC2)nc1 = MT1-MMP reporter: i; WNV protease inh: .; Hsc70: 1.5%
Listed for CC(=O)OCP(C)(=O)COC(C)=O = MT1-MMP reporter: i; WNV protease inh: -0.41; Hsc70: -2.0%
Listed for COc1ccc(N=C2SC(C(N)=O)CC(=O)N2CCc2ccc(OC)c(OC)c2)cc1 (stereo unspecified) = MT1-MMP reporter: i; WNV protease inh: .; Hsc70: -0.2%

Taken from above.
Hsc70 with `COc1ccc(N=C2SC(C(N)=O)CC(=O)N2CCc2ccc(OC)c(OC)c2)cc1` (stereo unspecified) reads -0.2%
WNV protease inh with `CC(=O)OCP(C)(=O)COC(C)=O` reads -0.41
